Rango dissoc inh = prevents RanGTP from dissociating the Rango-importin beta complex; O95149+P62826; Biochemical FRET Rango-importin beta, RanGTP-induced dissociation; Potency, µM (titrated, usually from 46.1 µM), for the others: top-dose activity change, negative = inhibition; 0.071% of 340,000 active; AID 540253; active means falling FRET ratio curve, often poorly fitted, with flat reads before Ran was added; inconclusive means other falling curves, or compound fluorescence or quenching; inactive means flat or rising ratio curve;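 also: potency is read from the fitted curve at half-maximal effect; % of control where 0% means no effect; nearly all actives have a fitted effect of over 45% in size; -100% = wells without RanGTP and RCC1; the record marks most hits as doubtful in a second field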
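Compounds preincubate 5 min with complex of recombinant Rango and importin beta in PBS with 1 mM DTT. Ran (0.6 uM) loaded with 2 mM GTP plus 0.2 uM RCC1 starts dissociation; FRET is recorded 45 min later.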
miR-21 FLuc = miR-21 reporter, rising signal. HeLa miR-21 FLuc reporter, luciferase, 48 h. Potency, µM (top dose mostly 38.3 µM), for inactives: top-dose reporter change, positive = more light. 340,000 tested, under 10 active; active = well fitted rising curve with a large enough effect; inconclusive = small, poorly fitted or top-dose-only effect; inactive = no such curve, though single readings can be large or run the other way;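 also: % of control where 0% means no effect; miR-21 action dims this reporter so a rising signal means less miR-21 action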
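Using DMEM plus 10% FBS, HeLa miR-21-FLuc cells are incubated with test compounds (final up to about 40uM) for 48 hours; firefly luciferase signal is then imaged following reagent-mediated lysis.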
Rango complex inh = Rango-importin beta binding inhibition; AID 540263; Potency, µM (series often up to 92.2 µM), for the others: at the top dose inhibition of complex formation; Q14974; Rango CFP/YFP FRET sensor + importin beta, 45 min; 0.031% of 340,000 active; active = rising FRET ratio curve, often small or poorly fitted; inconclusive = mostly compound fluorescence or quenching in the first reads; inactive = flat curves in all reads;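 also: potency is read from the fitted curve at half-maximal effect; 0% = DMSO wells and 100% = buffer wells lacking importin beta; nearly all actives have a fitted effect of over 15% in size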
Target sequence (Q14974 whole entry, looked up): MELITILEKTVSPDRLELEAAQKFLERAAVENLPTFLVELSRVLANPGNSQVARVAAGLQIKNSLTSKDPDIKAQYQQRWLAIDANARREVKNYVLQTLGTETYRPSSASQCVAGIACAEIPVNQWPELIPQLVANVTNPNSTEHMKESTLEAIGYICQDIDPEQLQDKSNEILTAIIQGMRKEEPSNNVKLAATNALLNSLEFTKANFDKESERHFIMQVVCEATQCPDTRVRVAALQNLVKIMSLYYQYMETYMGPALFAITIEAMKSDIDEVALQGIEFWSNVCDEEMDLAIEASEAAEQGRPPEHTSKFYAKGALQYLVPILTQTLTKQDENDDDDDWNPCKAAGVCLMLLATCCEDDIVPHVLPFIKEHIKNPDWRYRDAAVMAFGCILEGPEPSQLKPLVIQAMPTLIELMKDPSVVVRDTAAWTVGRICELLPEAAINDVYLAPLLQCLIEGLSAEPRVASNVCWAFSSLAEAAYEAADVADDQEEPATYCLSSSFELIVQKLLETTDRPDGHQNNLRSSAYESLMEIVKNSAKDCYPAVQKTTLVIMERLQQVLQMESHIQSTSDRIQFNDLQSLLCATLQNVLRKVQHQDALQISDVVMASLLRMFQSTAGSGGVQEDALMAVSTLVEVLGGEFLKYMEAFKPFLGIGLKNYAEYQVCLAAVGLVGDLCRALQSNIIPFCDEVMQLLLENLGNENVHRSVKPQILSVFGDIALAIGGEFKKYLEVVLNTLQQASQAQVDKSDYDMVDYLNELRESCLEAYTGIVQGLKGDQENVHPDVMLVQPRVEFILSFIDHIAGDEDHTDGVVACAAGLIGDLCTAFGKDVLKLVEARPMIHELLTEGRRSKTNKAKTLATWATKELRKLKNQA
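Inhibition scored from the CFP 486 nm/YFP 530 nm FRET ratio 45 min after adding 0.125 microM importin beta to 50 nM Rango biosensor preincubated 5 min with compound (room temperature, PBS with DTT, Tween-20, BSA). No-importin wells as positive control.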
GLA inh pH 4.5 = inhibitors of human alpha-galactosidase A at pH 4.5 | activity change, negative = inhibition, % at 105 µM | purified enzyme, 4-MU-alpha-Gal fluorescence, pH 4.5 | P06280 | 230,000 tested, under 10 active; inconclusive = small, poorly fitted or top-dose-only inhibition, or a rising curve; inactive = flat fitted curve, though single readings scatter; no compound was filed as active;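 also: 0% = full activity with enzyme and -100% = basal without enzyme; dose as in the result columns while the protocol names 77 µM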
Numbers without * were called inactive; ? = inconclusive; . = not tested or not shown; & = joins results of further samples.

GLA inh pH 4.5,Rango complex inh,miR-21 FLuc,Rango dissoc inh,mol
7.4,2.5%,-6.9%,6.3%,CC(=O)N(CCc1ccccc1C)Cc1cc2cc3c(cc2[nH]c1=O)OCO3
-10.6,-4.1%,-1.1%,0.8%,CC(Oc1ccc(Cl)cc1)/C(N)=N/O (stereo not drawn)
.,-1.3%,0.4%,14.3%,Cc1cc(C)cc(N2C(=O)CN(Cc3ccccc3)C2=S)c1
.,-1.3%,.,-1.7%,O=C1NC(=O)N2CCSC2(Cc2ccccc2)N1 (stereo not drawn)
.,3.3%,-3.2%,0.2%,COc1cccc(CN2CC(C(=O)N3CCCCCCC3)CCC2=O)c1 (stereo not drawn)
5.2,-1.5%,-1.0%,-5.7%,COc1ccc(OC)c(N(CC(=O)Nc2ccccc2)S(C)(=O)=O)c1
-8.9,4.0%,1.0%,-9.0%,CCCS(=O)(=O)c1c(S(=O)(=O)CCC)c2c(C(N)=O)cccn2c1C(=O)c1ccc(F)cc1
.,-2.4%,3.1%,-12.7%,CCOC(=O)C1(Cc2cccc(Cl)c2)CCCN(C(=O)c2ccc(COC)s2)C1 (stereo not drawn)
0.7,-3.6%,4.4%,-4.8%,CC(=O)Nc1ccc(OCCC[n+]2ccccc2)cc1
5.2,0.5%,-8.4%,13.9%,CCN1CCCC1CNC(=O)c1csc2c1CCCC2 (stereo not drawn)
1.1,-0.6%,23.0%,7.9%,O=C(Nc1nnc(-c2cccs2)o1)c1cccc(Oc2ccccc2)c1
-2.6,?,-35.2%,-23.6%,CNC(=O)/C(C#N)=C/c1ccc(-c2nc3ccccc3s2)o1
-6.9,-2.2%,4.5%,-0.6%,COc1ccc(CC(=O)NC(C)c2nnc(SCC(=O)Nc3ccccc3F)n2C)cc1 (stereo not drawn)
-11.1,0.2%,-2.0%,-3.7%,COC(=O)c1cccc(OCC(O)Cn2cnc3cc(C)c(C)cc32)c1 (stereo not drawn)
.,6.2%,.,6.6%,COc1ccc(Cl)cc1NC(=O)COC(=O)Cc1cc(OC)c(OC)c(OC)c1
5.4,2.1%,8.9%,5.7%,CC1CN(C(=O)N2c3ccccc3Sc3ccccc32)C(C)CC1=O (stereo not drawn)
14.1,-0.8%,-13.0%,-0.7%,O=C(CN1CCOCC1)Nc1cccc(Cl)c1Cl
.,0.3%,-0.5%,0.7%,CCOCCCn1c(=S)[nH]c2cc(C(=O)NC3CCCCC3C)ccc2c1=O (stereo not drawn)
-4.6,?,-8.9%,-21.8%,COc1nccnc1NS(=O)(=O)c1ccc(NC(=S)NC(=O)/C=C/c2ccc(F)cc2)cc1
-8.1,-5.1%,-7.2%,-6.3%,O=C(CCc1nc2ccccc2s1)NCc1ccccc1F
4.6,?,-11.5%,?,O=C(c1cnn2c(C(F)(F)F)cc(-c3cccs3)nc12)N1CCN(C(c2ccccc2)c2ccccc2)CC1
6.8,-0.3%,5.1%,5.5%,O=C(O)CN1C(=O)NC2(CCOc3ccccc32)C1=O (stereo not drawn)
.,2.1%,-9.0%,11.5%,COc1ccc(OCCCN2CCc3ccccc3C2)cc1
.,-3.8%,-5.8%,14.8%,CCOc1ccc(N(CC(=O)Nc2cccc(Br)c2)S(C)(=O)=O)cc1
-6.0,?,1.5%,?,CC1=Nc2ccccc2/C1=C/c1c(N)n2c(S(=O)(=O)C(C)C)nsc2nc1=O
-5.4,1.8%,1.4%,12.1%,Cc1ccc2c(CN3CCN(C(=O)c4ccco4)CC3)cc(=O)oc2c1C
.,0.7%,-3.0%,-17.4%,CCCCCc1ccc(-c2cn(Cc3cccc(OC)c3)nn2)cc1
-4.4,?,-2.6%,4.8%,O=[N+]([O-])c1ccc(O)c(Nc2ncnc3ccc(Br)cc23)c1
-2.7,.,-10.2%,.,Nc1cccc(-n2nncc2-c2ccc(Cl)cc2)c1
-15.2,-5.4%,5.6%,19.2%,C#CCNC(=O)C1=C[C@@H](c2ccc(C#C)cc2)[C@H](CCCO)[C@@H](OCC)O1
-1.6,-4.0%,-5.3%,2.0%,Cc1ccccc1S(=O)(=O)Cc1ccc(C(=O)NCCN2CCCCC2C)o1 (stereo not drawn)
7.2,-4.5%,-31.0%,-3.6%,Cc1nn2c(-c3cccc(NC(=O)CSc4nc5ccccc5o4)c3)nnc2c2ccccc12
.,0.5%,.,-13.5%,O=P1(O)Cc2ccccc2-c2ccccc21
.,-0.2%,-3.7%,0.9%,COCCn1c(N)c(Sc2ccc(Cl)cc2)c(=O)[nH]c1=O
.,-1.1%,.,-9.2%,Fc1c(F)c(F)c(SCn2cc(Br)cn2)c(F)c1F
3.1,4.3%,1.9%,0.6%,O=C(Nc1cccc(C(F)(F)F)c1)c1csc(-c2ccncc2)n1
.,0.5%,-9.5%,4.7%,CCN(CC)c1nc(-c2ccc(C(=O)NN)cc2)nc(-c2ccc(C(=O)NN)cc2)n1
.,-0.4%,-11.9%,1.0%,COc1ccc(NC(=O)CCNC(=O)c2ccco2)c(OC)c1
-2.6,1.4%,1.5%,7.1%,FC(F)(F)c1cc(-c2ccccc2)nc(-n2cc(Cl)cn2)n1
7.9,?,-5.9%,-19.4%,CCOC(=O)SC1=N/C(=C\c2ccc(N(C)C)cc2)C(=O)S1
-6.6,?,10.6%,?,COc1ccc2[nH]c(=O)c(CNc3ccccc3OC)cc2c1
.,-2.7%,-28.7%,-1.1%,NC(=O)c1nsc(C(=O)N(CC(=O)NC2CCCCC2)Cc2ccc(F)cc2)c1N
-0.5,-1.3%,-21.2%,1.1%,O=c1oc(-c2ccccc2F)nc2scc(-c3ccccc3)c12
3.1,-0.8%,1.0%,15.8%,O=C(NCc1ccccc1Cl)C1CCN(S(=O)(=O)N2CCC3(CC2)OCCO3)CC1
4.0&-10.6,?,5.9%,?,CCCCC1=CC2=C(c3ccco3)C(=O)C(C)(OC(=O)c3ccc(OC)cc3)C(=O)C2=CN1CCc1ccccn1 (stereo not drawn)

For reference, some entries already given:
GLA inh pH 4.5,Rango complex inh,miR-21 FLuc,Rango dissoc inh,mol
7.4,2.5%,-6.9%,6.3%,CC(=O)N(CCc1ccccc1C)Cc1cc2cc3c(cc2[nH]c1=O)OCO3
-10.6,-4.1%,-1.1%,0.8%,CC(Oc1ccc(Cl)cc1)/C(N)=N/O (stereo not drawn)

Remaining list, next part:
GLA inh pH 4.5,Rango complex inh,miR-21 FLuc,Rango dissoc inh,mol
3.9,-4.8%,-26.9%,3.5%,CCSc1nnc2c(n1)OC(C)(C)Nc1ccccc1-2
.,1.2%,-0.1%,-7.9%,COCCc1nc2ccc(C(=O)N3CCCC(CCCO)C3)cc2o1 (stereo not drawn)
-4.3,0.0%,-5.5%,-5.2%,CC(=O)N(c1c(C)n(C)n(-c2ccccc2)c1=O)C1(C(=O)NC2CCCC2)CCCCC1
-12.9,?,-28.8%,5.6%,CN(C)/C=C1\N=C(c2ccccc2)OC1=O
-0.1,5.6%,-1.0%,-9.9%,COc1ccc(-n2c(C)cc(/C=C/c3nc(O)c([N+](=O)[O-])c(=O)[nH]3)c2C)cc1
1.8,0.5%,0.2%,-2.9%,Cc1sc(-c2cccnc2)nc1OC(=O)C1CC1
1.5,-2.2%,-2.2%,-0.1%,CCc1cc2ccc(C)cc2nc1SCC(=O)Nc1cc(C)on1
.,-0.1%,-34.2%,-1.0%,Cc1ccc(C)c(OCC(=O)N2CCc3ccccc3C2)c1
-19.5,-0.3%,3.7%,-5.6%,O=C(Nc1cccnc1)C1CCCN(S(=O)(=O)c2ccccc2)C1 (stereo not drawn)
.,-0.8%,-9.0%,13.3%,CCCN1CCN(C(=O)c2cc(COc3ccc(F)cc3F)on2)CC1
13.1,1.1%,-1.8%,3.6%,Cc1ccc(S(=O)(=O)NNC(=O)c2c(O)c3ccccc3[nH]c2=O)cc1
-2.7,4.6%,-6.5%,-17.5%,CCOC(=O)c1[nH]c(C)c(C(=O)Nc2cccc(Cl)c2C)c1C
5.0,0.2%,?,1.2%,CN(CCn1ccnc1)C(=O)CC1C(=O)NCCN1Cc1ccccc1C(F)(F)F (stereo not drawn)
-3.1,-0.9%,0.9%,0.4%,O=C(NCCc1nc2ccccc2[nH]1)c1cc([N+](=O)[O-])cc([N+](=O)[O-])c1
-2.1,0.8%,-1.1%,-1.6%,C1=C(CCNc2nnnn2-c2ccccc2)CCCC1
-2.0,4.1%,0.0%,-4.1%,O=C(CCNc1ccc(Br)cc1)c1cccc([N+](=O)[O-])c1
1.5,-3.8%,-7.3%,4.4%,Cn1c(=O)c2c(nc(-n3ccnc3)n2Cc2ccc([N+](=O)[O-])cc2)n(C)c1=O
14.9,2.5%,-1.4%,-14.1%,COC(=O)COc1ccc2c(-c3cccc([N+](=O)[O-])c3)cc(=O)oc2c1
-4.3,5.0%,-1.8%,7.0%,O=c1nc2ccccc2c2n1CC(CN1CCN(Cc3ccccc3)CC1)N2 (stereo not drawn)
.,3.3%,-2.1%,13.3%,CCc1cccc(C)c1NC(=O)c1ccc2nc(N3CCOCC3)sc2c1
-5.6,-0.7%,-8.5%,0.7%,CCOC(=O)C1CCCN(CCC(=O)Nc2ccc3c(c2)CCC3)C1 (stereo not drawn)
0.0,0.7%,-9.5%,4.5%,Cc1ccc2c(N)c(C)ccc2c1
-2.3,-0.7%,-10.9%,-19.1%,COc1cccc(C(=O)NNC(=O)Cc2ccc(Cl)cc2)c1
-25.2,-0.3%,-48.3%,-13.1%,Nc1nnc(/C=C/c2ccccc2Cl)s1
.,0.3%,.,8.3%,COc1ccc(S(=O)(=O)N2CCCCC2)cc1NC(=O)Cc1ccc(Br)cc1
1.6,-2.0%,0.4%,12.3%,CCCc1nnc(NC(=O)COC(=O)c2cc(C)nc3ccccc23)s1
-8.5,-4.2%,0.3%,-15.1%,O=C(COC(=O)c1ccc(Br)o1)Nc1ncc(Cl)cc1Cl
0.2,-2.1%,-16.9%,-0.3%,Cc1cc(C)n2nc(N)c(N=Nc3ccc(Cl)cc3)c2n1
-21.8,?,8.3%,8.8%,CCOc1ccc(N(CC(=O)Nc2cccc(N(C)S(C)(=O)=O)c2)S(=O)(=O)c2ccccc2)cc1
.,-0.1%,.,-11.8%,COc1cc(OC)cc(C(=O)OCC(=O)Nc2nnc(-c3ccccc3)o2)c1
.,-1.7%,-18.8%,5.5%,O=C(Cn1nnc(-c2ccccc2F)n1)Nc1ccc2c(c1)OCCO2
11.4,0.3%,-11.1%,-6.9%,O=C(CSc1ncccc1-c1nc2ccccc2[nH]1)N1CCCCC1
3.2,-0.5%,-5.8%,-9.4%,COc1ccc(/C=C(\C#N)C(=O)NC2CCS(=O)(=O)C2)cc1OC (stereo not drawn)
.,-0.1%,-0.7%,4.3%,CN(C(=O)COC(=O)c1cc([N+](=O)[O-])ccc1Cl)c1ccccc1
5.7,7.7%,?,8.0%,CN1CCN(CC(O)COc2ccc(C34CC5CC(CC(C5)C3)C4)cc2)CC1 (stereo not drawn)
-1.3,-0.4%,-0.2%,-6.6%,CC1Cn2c(CCc3ccccc3)nnc2S1 (stereo not drawn)
.,7.1%,.,5.4%,Cn1c(=O)c2[nH]c(=O)[nH]c2n(C)c1=O
.,-2.3%,.,49.5%,Cc1cc(C)n2nc(C(=O)OCC(=O)Nc3cc(S(=O)(=O)N4CCOCC4)ccc3Cl)nc2n1
.,-2.8%,.,6.7%,Cc1n[nH]c(=O)c2c(NC(=O)CSc3nncn3C(C)C)oc(C)c12
-1.1,-1.7%,0.8%,6.2%,O=C1OC(N2CCN(C(=O)c3ccco3)CC2)c2ccccc21 (stereo not drawn)
0.1,2.4%,-0.8%,24.0%,COc1ccc(S(=O)(=O)N2CCOCC2)cc1NC(=O)CSc1nnc(C2CC2)n1N
.,-0.1%,-0.4%,12.1%,COc1ccc(S(=O)(=O)N2CCC(NC(=O)c3cccnc3)CC2)cc1
-1.4,-0.3%,-10.0%,?,C=CCOc1ccc(C=Nc2cccc(Cl)c2)c(O)c1
.,-1.5%,-0.7%,15.4%,COc1ccc2c(c1)c(C(C)=O)c(C)n2CCc1ccc(OC)c(OC)c1
-5.5,-0.7%,-14.8%,0.4%,Cc1nc(N2CCOCC2)nc(Oc2ccccc2F)c1[N+](=O)[O-]
-0.9,-4.6%,2.1%,-8.0%,CCN(CC)S(=O)(=O)c1cccc(C(=O)N[C@H](C(=O)NCc2ccccc2F)C(C)C)c1

High-throughput results as filed in PubChem BioAssay.

A portion of the library (hit frequency here may not be typical).
